# PABP polyA inh – blocks human PABP binding to poly(A) RNA; fluorescence polarization; inhibition, % at 35 µM; P11940; 1% of 290,000 active; AID 2014;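 active = 50% or more with normal probe brightness, or confirmed in later tests; inconclusive = above 50% with abnormal brightness, or retests that disagree; inactive = below 50% or failed in later tests; about a fifth of its hits are not listed in these tables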;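 also: calls also rest on retests at 20 µM and on dose response follow-up; controls were probe without protein and protein plus probe with vehicle; some compounds called inactive have numbers as strong as hits; many hits fall short of the cut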
# Target sequence (P11940 whole entry, looked up): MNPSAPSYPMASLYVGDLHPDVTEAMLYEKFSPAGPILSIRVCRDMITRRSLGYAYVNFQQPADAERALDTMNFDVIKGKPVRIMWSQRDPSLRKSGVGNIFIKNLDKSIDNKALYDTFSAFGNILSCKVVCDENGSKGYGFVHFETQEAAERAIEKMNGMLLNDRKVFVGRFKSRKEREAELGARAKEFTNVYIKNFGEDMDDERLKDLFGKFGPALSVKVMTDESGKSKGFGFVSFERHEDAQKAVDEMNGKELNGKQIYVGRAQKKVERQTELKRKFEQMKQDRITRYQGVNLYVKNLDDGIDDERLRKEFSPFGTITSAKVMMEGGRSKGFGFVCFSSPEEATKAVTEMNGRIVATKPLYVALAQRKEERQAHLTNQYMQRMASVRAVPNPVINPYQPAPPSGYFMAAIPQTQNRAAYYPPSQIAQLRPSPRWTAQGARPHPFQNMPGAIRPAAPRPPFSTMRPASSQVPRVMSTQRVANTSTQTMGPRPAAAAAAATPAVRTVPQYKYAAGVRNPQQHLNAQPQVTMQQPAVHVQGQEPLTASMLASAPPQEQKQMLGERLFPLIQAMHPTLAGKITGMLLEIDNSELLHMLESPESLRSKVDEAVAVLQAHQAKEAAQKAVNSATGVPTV
# eIF4H FP inh – inhibitors of RNA binding by human eIF4H; Q15056; eIF4H fluorescence polarization binding assay; inhibition, % at 35 µM; 0.94% of 290,000 active; AID 2012;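 active = 50% or more with normal probe brightness, or confirmed in later tests; inconclusive = above 50% with abnormal brightness, or retests that disagree; inactive = below 50% or failed in later tests; about a fifth of its hits are not listed in these tables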;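 also: calls also rest on retests at 20 µM and on dose response follow-up; 0% = protein and probe with vehicle and 100% = probe without protein; strong numbers were not always called active; many hits fall short of the cut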
# HIV Env fusion – blocks HIV Env-driven cell-cell fusion; HeLa-JRFL Env/CEM21 cell fusion, luciferase; inhibition, % at 12.3 µM; 1.1% of 360,000 active; AID 651610;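 active = mean replicate inhibition score of at least 50 and every replicate individually at or above 50; inconclusive = only one of the two criteria met; inactive = mean below 50 and not all replicates reaching 50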;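 also: 0% = plate neutral controls and 100% = maraviroc near 300 nM; one replicate is shown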
# UUG fidelity – yeast start codon fidelity modulation. S. cerevisiae UUG-firefly luciferase reporter, luminescence/redox ratio. activity score, % at 18.7 µM. 0.13% of 350,000 active. AID 602363;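 active = replicate mean at a twofold rise or more, about +100% in these data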;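 also: firefly luciferase made from a UUG start codon reports start codon fidelity; reporter light over untreated wells divided by growth signal over untreated wells; some hits fall short of that in this replicate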
# Rce1 inhib – yeast Ras-converting enzyme inhibition | Q03530 | yeast membranes, quenched prenylated peptide cleavage fluorescence | calls only | 0.27% of 290,000 active | AID 2563;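 active = fall in fluorescence gain of 50% or more versus controls, with final raw signal at or below 3038400; inconclusive = same 50% fall but final raw signal above 3038400; inactive = fall in fluorescence gain under 50%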;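 also: plate controls were neutral control wells for no effect and wells lacking membranes for full effect; tested at 10 µM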
# Target sequence (Q03530 whole entry, looked up): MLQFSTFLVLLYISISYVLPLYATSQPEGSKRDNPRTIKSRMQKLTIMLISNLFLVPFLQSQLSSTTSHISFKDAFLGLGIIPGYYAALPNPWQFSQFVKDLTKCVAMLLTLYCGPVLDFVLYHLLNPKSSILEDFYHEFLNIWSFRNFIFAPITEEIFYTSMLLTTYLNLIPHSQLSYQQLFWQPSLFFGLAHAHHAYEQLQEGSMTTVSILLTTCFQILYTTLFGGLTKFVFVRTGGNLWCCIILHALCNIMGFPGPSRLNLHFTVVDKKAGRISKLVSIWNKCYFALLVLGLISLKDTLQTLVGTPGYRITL
# MT1-MMP act inh – MT1-MMP (human) activation inhibition; 0.061% of 360,000 active; AID 651647; P50281; HT1080 RFP-PRO-GFP cells, GFP/RFP ratio fluorescence, overnight; percent of plate control window, DMSO zero; GFP/RFP ratio change, % at 20 µM;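 active = GFP/RFP ratio change of at least 30% with cell ATP level not reduced by more than half and red fluorescence within 50% of control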; also: strong numbers were not always called active
#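 Material: RFP-PRO-GFP reporter HT1080 cells. Dosing: single-point 20 µM compound, 1% DMSO. Controls: DMSO and RFP-L50D-GFP cell wells. Timing: cells overnight before dosing, compound overnight, 37 °C, 5% CO2. Measure: GFP/RFP fluorescence ratio.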
# CSC inhib – blocks cancer stem cells. cancer stem cell-like cells viability, luminescence. inhibition, % at 7.5 µM. 1.1% of 300,000 active;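 active = mean at 75% or more and at least half the replicates too; inconclusive = mean and replicates disagree; tested in HMLE shEcad cells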;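 also: 0% = median of negative and 100% = median of positive control wells; the first replicate is given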
# eIF4H FP inh retest – further read-out of eIF4H FP inh, marked with its call; inhibition, %; compound at 20 µM; confirmation average;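 mean of two retest wells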
# PABP polyA inh retest – further read-out of PABP polyA inh, marked with its call; inhibition, %; compound at 20 µM; confirmation repeats;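 mean of two retest wells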
# MT1-MMP act inh RFP – also measured in MT1-MMP act inh; calls as there; RFP signal change, %; measured here: RFP expression control read;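 0 = vehicle wells; hits needed this value within 50% of zero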
# An asterisk follows results filed as active; i = inactive; ? = inconclusive; · = not tested or not shown; & = joins results of further samples; [ ] = another dose, or the depositor's remark.
SMILES,PABP polyA inh,eIF4H FP inh,HIV Env fusion,UUG fidelity,Rce1 inhib,MT1-MMP act inh,MT1-MMP act inh RFP,CSC inhib,others
CC1=C(C(=O)N2CCCCCC2)C2(CCC(C)CC2)OC1=O (configuration not stated),-6,3,-85,7,i,-5,0,9,
Cc1cccc(C)c1NC(=O)CN1C(=O)C(C)Oc2ccccc21 (configuration not stated),4,5,-3,-7,i,1,2,-15,
CCOC(=O)c1sc2c(c1C)c(=O)c(C(=O)OCC)cn2CC,-3,2,·,·,i,3,5,-10,
Cc1ccccc1NC(=O)C1CCN(c2cc(-c3ccccc3)nc3ncnn23)CC1,-6,4,·,-9,i,4,-9,-14,
CN(C)S(=O)(=O)c1cc(NC(=O)COC(=O)c2ccc3c(c2)OCO3)ccc1Cl,31,-10,-32,·,·,-3,2,-16,
CN(c1ccccc1)S(=O)(=O)c1ccc(Cl)c(C(=O)NCc2ccccc2CN2CCCC2)c1,·,·,·,-22,·,-1,1,4,
N#C/C(=N\Nc1ccc(Cl)cc1)C(=N)N1CCCCCC1,3,-1,-119,·,i,2,3,10,
O=C(NCc1ccco1)c1cccc(S(=O)(=O)N2CCc3ccccc32)c1,-3,-4,4,·,i,2,-3,-19,
COc1ccc(Br)cc1/C=N/NC(=O)c1cc(OC)c(OC)c(OC)c1,2,-1,-5,·,i,-4,-2,39,
Cc1nc2cc(-c3ccccc3)nn2c(C)c1CCC(=O)NC(C)c1ccc2c(c1)OCCO2 (configuration not stated),12,8,41,-11,i,-1,-4,-8,
CC(=O)/C(=N/Nc1ccccc1)Sc1nnc(CCc2ccccc2)n1-c1ccccc1,-6,1,-5,·,i,-2,-5,-6,
O=C(NCc1ccccn1)C(=O)NCC(c1ccco1)N1CCOCC1 (configuration not stated),-11,-2,0,·,i,2,5,-10,
COC(C(=O)Nc1ccnn1C1CCN(C(=O)c2cccc(F)c2)CC1)c1ccccc1 (configuration not stated),-4,-16,2,-1,i,1,-1,21,
C=CCOC(=O)C(C#N)c1nc2ccccc2nc1N1CCN(Cc2ccccc2)CC1 (configuration not stated),73*,57*,·,6,i,-17,-7,-3,
COC(=O)C1=C(C(=O)OC)[C@@H]2Nc3ccccc3[C@@]23C[C@@H](C(=O)OC)N(C(=O)c2cccs2)C3=N1,·,·,13,0,i,1,-1,·,
Cc1ccc2ncnc(Nc3ccc(C)c(C)c3)c2c1,-3,-8,·,-3,i,1,-7,80*,
Cc1ccc2c(c1)nnn2C1CCN(CC(=O)NNC(=O)c2ccco2)CC1,-9,-3,4,·,i,0,1,-12,
CC(C)(C)C(=O)COC(=O)c1c2c(nc3ccccc13)CCC2,-4,46,8,·,i,-4,5,-4,
O=C(CCc1nc(-c2ccc(Cl)cc2)no1)NCC1CCCO1 (configuration not stated),-13,2,2,-9,i,0,1,-6,
Cc1ccc(-c2nnc(N3CCOCC3)c3ccccc23)cc1S(=O)(=O)NCc1cccnc1,7,-5,-24,·,i,1,-3,-9,
CCCCCCC1NC(C(=O)O)CS1 (configuration not stated),-7,-2,-29,-11,i,2,4,13,
COC(=O)c1ccc2c(c1)C(=O)/C(=C/c1ccc(O)cc1)O2,1,25,·,-24,i,-12,-6,14,
COc1cccc(C(=O)N(c2ccccc2)C2C=CS(=O)(=O)C2)c1 (configuration not stated),-12,8,2,-7,i,-1,-2,-5,
C[C@@]12C(=O)Nc3ccc(F)cc3C(=O)N1[C@H]1c3cc(Br)ccc3OC[C@@H]1[C@@H]2c1ccccc1,·,·,57*,-2,·,-19,-16,41,
CCN(CC)S(=O)(=O)c1ccc2[nH]cc(C(=O)NCCCN3CCCCC3)c(=O)c2c1,-8,2,·,-15,i,1,6,1,

# Continued (2 carried over from the part before).
SMILES,PABP polyA inh,eIF4H FP inh,HIV Env fusion,UUG fidelity,Rce1 inhib,MT1-MMP act inh,MT1-MMP act inh RFP,CSC inhib,others
C[C@@]12C(=O)Nc3ccc(F)cc3C(=O)N1[C@H]1c3cc(Br)ccc3OC[C@@H]1[C@@H]2c1ccccc1,·,·,57*,-2,·,-19,-16,41,
CCN(CC)S(=O)(=O)c1ccc2[nH]cc(C(=O)NCCCN3CCCCC3)c(=O)c2c1,-8,2,·,-15,i,1,6,1,
Cc1cc(SCC(=O)Nc2cccc(S(=O)(=O)NC3=NCCCCC3)c2)c(C)cc1Br,1,-1,-2,·,i,-2,-9,14,
COc1cc(OC)c(C(=O)N2CCN(c3ccccn3)CC2)cc1OC,8,-4,-1,-14,i,4,5,-14,
CCOC(=O)c1[nH]c2c(c1-c1ccccc1)C(=O)CC(c1ccccc1)C2 (configuration not stated),26,2,-92,17,i,·,·,20,
Cc1cccc(NC(=O)NNC(=O)c2ccc3ccccc3c2)c1,-6,-4,2,-1,i,-1,2,-12,
O=C(CC(n1cncn1)C(Cl)(Cl)Cl)c1ccc([N+](=O)[O-])cc1 (configuration not stated),11,-1,7,-12,i,-4,-4,7,
CCC(C)(C)NC(=O)CCn1c(-c2ccccc2)cc(C(C)=O)c1C,12,5,1,·,i,2,6,-2,
Cc1ccc(CN(C)C(=O)COc2ccc(S(=O)(=O)N3CCCC3)cc2[N+](=O)[O-])c(C)c1,·,·,6,-3,·,-6,-11,·,
CCOC(=O)N(C)c1c(CC)nc2c(OCc3ccccc3C)cccn12,·,·,3,-2,·,-7,-6,·,
Cc1c(CCO)c(=O)[nH]n1S(=O)(=O)c1cccc(C(F)(F)F)c1,-6,-12,-1,-15,i,2,3,4,
CCOc1ccc2nc(NCCNC(=O)Nc3cccc(C)c3)c(C#N)cc2c1,26,10,7,0,i,-6,2,-5,
COc1ccc(C(=O)OC(C)CN2CCOCC2)cc1 (configuration not stated),2,-3,3,6,i,0,-3,-10,
O=C1O/C(=C/c2ccccc2)c2ccccc21,-4,6,-16,·,i,2,4,-12,
CC1(C)CC(NC(=O)CCC2CCCC2)CC(C)(C)N1,4,10,-32,-18,i,1,-1,·,
CCCCOc1cccc(OCCCC)c1C(=O)Nc1cc(C)on1,2,-2,29,·,i,-4,-6,5,
Nc1nnc(CCS(=O)(=O)c2cc(Cl)ccc2Cl)s1,-4,-10,·,·,i,4,4,9,
COc1ccc(NC(=O)CS(=O)c2cccc(C(F)(F)F)c2)cc1 (configuration not stated),0,1,·,-7,i,3,0,-5,
Cc1cc(OCC(=O)N(C)C2CCCCC2)ccc1Cl,?,-2,-40,-28,i,0,-5,4,
Cc1cc(F)cc(-c2cc(C(=O)NCc3cccc(Cl)c3)[nH]n2)c1,·,·,-38,-17,·,1,4,·,
CCOc1ccc(S(=O)(=O)Nc2nc3ccc(OC)cc3s2)cc1,6,1,·,-18,i,1,7,-11,
CC(=O)N1c2c(cc(Br)cc2S(=O)(=O)Nc2c(C)n(C)n(-c3ccccc3)c2=O)CC1C (configuration not stated),-6,2,0,·,i,-2,3,-10,
CSc1nc(NCc2ccco2)c2c3c(sc2n1)CN(C)CC3,0,56,·,·,i,·,·,-5,eIF4H FP inh retest=-8;PABP polyA inh retest=4
COc1cc(OC)cc(C(=O)N[C@H](C(=O)OCn2nnc3ccccc3c2=O)C(C)C)c1,11,0,-2,0,i,-9,-1,-15,
CCOc1ccc(OCCNC(=O)c2cc(C3CC3)nc3c2cnn3C(C)C)cc1,·,·,-46,4,·,-8,-9,·,
COc1cc(OC)nc(NC(=O)CSc2nc3ccccc3o2)n1,-3,-2,·,-16,·,6,2,-20,
O=C(CCn1nnc2ccccc2c1=O)NCC1CCC(C(=O)O)CC1 (configuration not stated),8,-2,-59,-10,i,-2,-3,6,

# The list continues:
SMILES,PABP polyA inh,eIF4H FP inh,HIV Env fusion,UUG fidelity,Rce1 inhib,MT1-MMP act inh,MT1-MMP act inh RFP,CSC inhib,others
CCN(CC)c1ccc(S(=O)(=O)N2CCOCC2)cc1NC(=O)c1cc(=O)c2ccccc2o1,-1,-5,8,·,i,-2,-4,-3,
CCCNC(=S)N1CCC(C(=O)c2ccc3c(c2)OCCO3)CC1,-3,10,16,·,i,1,-7,-6,
COc1cc(/C=C2\SC(=Nc3ccccc3)N(Cc3ccco3)C2=O)ccc1OC(C)C(=O)O (configuration not stated),0,5,13,·,i,8,-21,·,
CCN(CC(=O)Nc1sc2c(c1C#N)CCC(C)C2)CC(=O)NC1CCS(=O)(=O)C1 (configuration not stated),-5,-6,13,9,i,-3,-5,-4,
Nc1nc(N)nc(COc2ccccc2)n1,-12,-5,10,·,i,-7,-1,-17,
Cc1[nH]c2ccccc2c1C(=O)C(=O)N1CCN(c2ccccc2Cl)CC1,9,6,6,-12,i,5,5,6,
COC(=O)c1n[nH]c2ccccc12,8,9,·,-4,i,0,3,·,
Cc1ccc(CS(=O)(=O)c2cn(CC(=O)N3CCOCC3)c3ccccc23)cc1,-6,7,-18,16,i,-1,1,3,
Cc1ccc(C(=O)COC(=O)CCNS(=O)(=O)c2ccccc2F)cc1,·,·,·,-7,·,4,1,0,
COc1ccc(/C(O)=C2/C(=O)C(=O)N(c3ncccn3)C2c2ccc(OC)c(OC)c2)cc1 (configuration not stated),5,-3,·,-3,i,6,2,-13,
Cc1nc(C/C(=N\Nc2ccccc2)c2ccc(O)cc2O)cs1,2,2,-1,-10,i,1,-2,2,
COc1ccc(S(=O)(=O)NC2CC(=O)N(c3ccccc3)C2)cc1C (configuration not stated),·,·,-5,-7,i,-8,-4,-4,
O=C(CSc1nnc2n(C3CCCC3)c(=O)c3ccccc3n12)N1CCCCCC1,-1,1,22,-17,i,-7,-10,·,
Nc1nc(NCCOCCO)nc(NC2CCCCC2)c1[N+](=O)[O-],5,-4,-59,5,i,·,·,-6,
C(=N\Nc1nn2cnnc2c2ccccc12)/c1ccco1,5,5,11,·,i,5,1,·,
Cc1oc(C(C)(C)C)cc1C(=O)Nc1ccc2c(c1)OCO2,-2,-8,-11,-17,i,-2,-10,-16,
O=C(/C=C/c1ccccc1)NC(N1CCOCC1)C(Cl)(Cl)Cl (configuration not stated),-11,2,18,·,i,2,-2,-10,
CCN(CC)S(=O)(=O)c1ccc(N2CCOCC2)c(NC(=O)c2cc(=O)[nH]c3ccccc23)c1,0,5,4,7,i,-4,0,10,
O=C1OC(c2ccc(Cl)cc2)/C(=C(/O)c2ccccc2)C1=O (configuration not stated),4,6,-40,0,i,-2,1,-3,
Cc1ccc(S(=O)(=O)N2CC[C@H]3[C@@H](C2)C(=O)C[C@@H](c2ccccc2)N3S(=O)(=O)c2ccc(C)cc2)cc1,·,·,-30,1,·,-27,-23,·,
O=C1CC(N2CCSCC2)C(=O)N1c1cccc(Cl)c1 (configuration not stated),-6,-6,-8,·,i,-5,2,-16,
Cc1cc(Nc2ccccc2Cl)n2nnnc2n1,-12,-2,·,-17,i,-5,1,-5,
CC12CS(=O)(=O)CC1SC(=S)N2Cc1ccccc1 (configuration not stated),4,0,8,·,i,2,-1,3,
COc1ccc(S(=O)(=O)N(C)C[C@H]2Oc3ccc(NC(=O)Nc4ccc(C(F)(F)F)cc4)cc3C(=O)N([C@H](C)CO)C[C@@H]2C)cc1,·,·,1[16.7 µM],-12&-19,·,9,-2,21,
Cc1nnc(SC(C)C(=O)Nc2ncc(Cl)cc2Cl)n1Cc1ccccc1 (configuration not stated),0,2,·,·,i,3,2,-8,
Cc1cc(C)c(S(=O)(=O)NCc2csc(C)n2)c(C)c1,13,-3,7,-8,i,-1,2,2,
CC(C)CCNc1nc(N)c([N+](=O)[O-])c(NC2CCCCC2)n1,-1,8,17,-4,i,2,-6,-7,

# Source: PubChem
